# Screening results: PubChem BioAssay, several laboratories
# HNF4A DNA FP – change in binding of human HNF4 alpha to DNA | AID 1224865 | HNF4a-FITC DNA binding, fluorescence polarization, 1 h | activity change, % at 10 µM | hit rate 0.3% among 360,000 | P41235; in the data active means activity change above about 30%, passing the limit was not always enough;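 further: controls were the assay level and a saturating level of protein; the project sought stronger binding though the title names inhibitors; some compounds called inactive have numbers as strong as hits; positive values seem to mean higher polarization but the record does not say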
# Target sequence (P41235 whole entry, looked up): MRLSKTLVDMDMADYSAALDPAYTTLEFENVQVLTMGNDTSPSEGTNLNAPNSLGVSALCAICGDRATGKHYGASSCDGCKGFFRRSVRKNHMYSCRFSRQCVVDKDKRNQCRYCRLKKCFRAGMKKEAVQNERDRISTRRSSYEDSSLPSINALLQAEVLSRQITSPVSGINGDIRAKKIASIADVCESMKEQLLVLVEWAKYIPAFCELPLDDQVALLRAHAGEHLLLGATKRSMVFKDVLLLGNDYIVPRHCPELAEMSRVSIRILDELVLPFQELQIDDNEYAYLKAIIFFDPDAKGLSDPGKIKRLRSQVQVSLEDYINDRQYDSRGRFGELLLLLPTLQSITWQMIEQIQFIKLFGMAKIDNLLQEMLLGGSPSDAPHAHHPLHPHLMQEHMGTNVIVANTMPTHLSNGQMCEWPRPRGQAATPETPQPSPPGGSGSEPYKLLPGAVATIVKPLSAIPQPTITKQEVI
# Beta2AR agonist – agonists of human beta-2 adrenergic receptor inducing internalization. Am2.2-beta2AR cells, FAP receptor internalization, flow cytometry; reference of the scale not given here. hit rate 0.43% among 340,000. response, % (no concentration beside the values);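 active means response above a set limit, near 3 SD of response in nonfluorescent compounds, cut at about 42% in these data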;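 further: stock transfer was 100 nL into about 11 µL; a reference agonist was the positive control; negative values mostly stem from fluorescent compounds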
# ALR inh – blocks human ALR sulfhydryl oxidase activity. P55789. purified ALR, DTT oxidation, H2O2 HRP-luminol luminescence. inhibition, % (no concentration beside the values). hit rate 3.8% among 290,000;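 active means mean and each replicate at 75% or more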;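 further: stock transfer was 7.5 nL into about 7.5 µL; 0% = neutral wells and 100% = wells with inactivated enzyme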
# UCH37 DUB inh – blocks the human deubiquitinase UCH37. inhibition, % (concentration not given with the values). hit rate 0.33% among 330,000. purified proteasome/UCH37, Ub-AMC cleavage fluorescence;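 active means mean of two replicates above 20%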;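 further: 0% = compound-free wells with enzyme and 100% = wells lacking proteasome; stock transfer was 100 nL into about 20 µL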
# Target sequence (Q9Y5K5 whole entry, looked up): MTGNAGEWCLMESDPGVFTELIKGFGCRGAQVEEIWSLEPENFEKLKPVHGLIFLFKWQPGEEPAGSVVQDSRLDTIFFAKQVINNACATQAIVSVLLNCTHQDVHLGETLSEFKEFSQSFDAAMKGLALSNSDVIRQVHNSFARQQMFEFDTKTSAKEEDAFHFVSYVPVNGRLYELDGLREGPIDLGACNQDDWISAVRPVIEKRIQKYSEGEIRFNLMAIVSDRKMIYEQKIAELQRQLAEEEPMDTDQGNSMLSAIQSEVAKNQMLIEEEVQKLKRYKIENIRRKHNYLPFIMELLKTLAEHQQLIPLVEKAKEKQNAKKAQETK
#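 Reagent: Ub-AMC substrate; assay system: Proteasome-associated human UCH37 deubiquitinase; controls: no-proteasome and no-compound wells; read-out: % inhibition of Ub-AMC cleavage fluorescence; timing: 30 min preincubation with enzyme, 25 min cleavage at room temperature; signal: AMC fluorescence from Ub-AMC cleavage, excitation 355 nm, emission 460 nm; buffer or medium: Tris-HCl pH 7.4 plus ovalbumin, ATP-MgCl2, DTT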
# LANA-H2A inh – blocks KSHV LANA binding to histone H2A/H2B | Q9QR71 | cell-free LANA-H2A/H2B peptide, fluorescence polarization | inhibition, % (no concentration beside the values) | hit rate 0.6% among 320,000 | AID 2629; in the data active means inhibition mostly above about 10%, no sharp cut-off; inactive means mostly below about 6.7%;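 further: stock transfer was 7.5 nL into about 10 µL; 0% = median of vehicle wells and 100% = median of positive control wells; one replicate is shown; the record names a cut of 25% in any replicate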
# Ecoli growth – E. coli growth inhibition. Escherichia coli growth, OD600, 23 h; hits give low values. OD600 absorbance (no concentration beside the values). hit rate 0.21% among 330,000;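 active means OD600 absorbance below the run mean of sample wells minus 3.6 SD, in any replicate, cut at about 0.56 in these data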;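 further: stock transfer was 300 nL into about 60 µL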
# FGF22 binding – FGF22 (human) thermal shift binding | recombinant FGF22 thermal shift, SYPRO orange fluorescence; percent of sucrose octasulfate shift, DMSO zero | hit rate 1.5% among 340,000 | calls only at 9.99 µM | Q9HCT0;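 active means melting point raised past a set limit in the mean and every replicate; three in four hits are not shown here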
# Target sequence (Q9HCT0 whole entry, looked up): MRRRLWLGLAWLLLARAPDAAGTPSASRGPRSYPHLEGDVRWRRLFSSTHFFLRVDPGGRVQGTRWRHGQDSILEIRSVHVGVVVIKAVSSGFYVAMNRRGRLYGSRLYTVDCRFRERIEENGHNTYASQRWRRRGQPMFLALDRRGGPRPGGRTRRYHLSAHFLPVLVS
# Numbers without * were called inactive; i = inactive; . = not tested or not shown; & = joins results of further samples. A portion of the library; the hit share may differ from the screen's.
SMILES,HNF4A DNA FP,Beta2AR agonist,ALR inh,UCH37 DUB inh,LANA-H2A inh,Ecoli growth,FGF22 binding
Cc1ccc(N2C(=O)/C(=C/c3ccco3)SC2=S)cc1,3.5,16,6,4.1,1.7,.,i
COc1ccc(C(=O)Nc2ccc(NC(=O)c3ccccc3F)cn2)cc1,3.1,14,-3,-52,3.9,0.64,i
COc1ccccc1C(=O)NNC(=O)c1ccc(C)cc1,0.9,-4,-14,3.8,-3.3,0.67,i
CCN(CC)Cc1c(C(=O)N/N=C/c2cccs2)nnn1-c1nonc1N,2.7,-11,-10,.,1.5,.,i
O=C(c1ccc(NS(=O)(=O)c2cccc([N+](=O)[O-])c2)cc1)N1CCN(C(=O)c2ccco2)CC1,-6.1,-4,-4,4.9,3.2,0.68,i
Nc1ccc(N2CCN(c3ccc(F)cc3)CC2)cc1,-1.5,-2,99*,2.1,3.3,0.66,i
COc1ccc(C)cc1NC(=O)C(Sc1nnc(Nc2cc(C)ccc2OC)s1)c1ccccc1 (stereo unspecified),-1.2,-6,3,4.2,0.2,0.66,.
COc1ncccc1-c1nnn(-c2ccc(F)cc2)n1,3.4,-7,-2,4.2,0.7,0.68,i
COc1ccc(NC(=O)COc2ccc(C(=O)NC3CCCc4ccccc43)cc2OC)cc1 (stereo unspecified),3.0,3,.,.,3.8,.,.
CN(Cc1ccccc1)Cc1c[nH]c2ccccc12,-1.5,0,-7,2.9,-1.6,0.72,.
Cc1c(S(=O)(=O)NC2CCCCC2)c(=O)n(C)c(=O)n1C,-5.1,5,3,3.1,-1.8,0.67,i
O=c1[nH]n2c(C(F)(F)F)cc(C3CC3)nc2c1N=Nc1ccccc1,-0.2,1,.,13,1.7,0.72,i
N=C(N)c1ccc(/C=C/c2ccc(C(=N)N)cc2O)cc1,18,-3,13,-27,0.9,0.66,i
COc1ccc(-c2nc(NC(=O)Cn3c(=O)oc4ccccc43)sc2C)cc1,-0.6,5,-5,2.1,-2.5,0.69,i
COc1cc(C(=O)NC(=S)Nc2ccc([N+](=O)[O-])cc2)cc(OC)c1OC,2.2,2,0,4.0,-2.9,.,.
CC(C)(C)c1ccc(OCC(=O)Nc2ccc(C(=O)Nc3ccccc3C(=O)O)cc2)cc1,1.1,2,46,-6.4,-0.1,0.71,i
CCN1C(=O)C(CC(=O)Nc2ccc(F)cc2)N(Cc2ccco2)C1=S (stereo unspecified),-0.7,0,-4,-1.0,-1.9,0.72,i
O=C(Nc1cccc(Cl)c1)Nc1nnc(CSCCOc2ccc(Cl)cc2)s1,-1.9,7,.,1.4,-3.8,0.73,.
COc1cc(OC)cc(C(=O)OCC(=O)NC(C)CCc2ccccc2)c1 (stereo unspecified),6.9,-9,1,4.7,9.4,0.74,i
Brc1cc2c(cc1C1OCCO1)OCO2,-1.3,-2,.,2.9,.,0.68,i
Cc1c(C(=O)NCc2ccco2)cccc1[N+](=O)[O-],-0.3,4,-4,2.5,-2.5,0.68,.
O=C(CNC(=O)c1ccc(Cl)cc1)c1ccc(Br)cc1,3.1,-7,13,4.9,-0.2,0.66,i
CCC1(COC(NC(=O)c2cccnc2)(C(F)(F)F)C(F)(F)F)COC1,0.4,5,-3,0.2,1.7,0.72,.
O=C(CCNS(=O)(=O)c1ccc(Cl)cc1)NCc1cccs1,-3.8,3,5,3.3,-0.6,0.71,.
Cc1ccc(CNC(=O)COC(=O)c2cnccn2)cc1,1.0,-7,-1,3.4,-4.1,0.74,i
Cc1ccc(NC(=O)c2ncn(CC(=O)N[C@H](CO)Cc3c[nH]c4ccccc34)n2)cc1C,-6.5,0,.,-0.9,.,0.65,i
O=C(O)CCC(=O)Nc1ccc(Cc2ccc(NC(=O)CCC(=O)O)cc2)cc1,-3.3,-1,-5,2.5,2.6,0.66,.
C=CCNC(=O)c1sc(SC)cc1-c1ccc(Cl)cc1,1.2,-10,.,1.5,-1.9,0.78,.
CC(=O)c1ccc(OCCCC(=O)Nc2ccc3c(c2)OCCO3)cc1,5.0,1,-5,0.8,0.9,0.7,i
COc1ccc(CNc2nnnn2C)cc1,-3.2,-3,7,3.0,2.8,0.71,i
COc1ccccc1C(=O)C1CCCN(Cc2ccc3c(c2)OCCO3)C1 (stereo unspecified),4.4,-3,-7,1.2,2.9,0.69,i
O=C(COC(=O)c1ccc(CO)cc1)Nc1ccc2ccccc2c1,-0.3,3,-7,5.0,6.1,0.67,i
Nc1ccc(Cl)cc1/C(=N/O)c1ccccc1,0.3,1,97*,.,-3.7,.,.
CCn1c(SCC(=O)N2CCCC(C)C2)nc2c1c(=O)n(C)c(=O)n2C (stereo unspecified),-1.2,-2,-2,2.3,-1.8,0.69,i
CC(OC(=O)C1CCN(S(=O)(=O)c2ccc(Cl)cc2)CC1)C(=O)N1CCc2ccccc21 (stereo unspecified),1.6,2,-28,-1.0,2.4,0.71,.
CN(C(=O)COC(=O)c1ccc(Cl)c(S(=O)(=O)N2CCCCCC2)c1)C1CCS(=O)(=O)C1 (stereo unspecified),-0.7,-5,-3,1.5,4.0,0.7,i
COc1cccc(OC)c1C(=O)OCC(=O)N(c1ccccc1)C1CCCCC1,-1.6,1,-1,3.2,3.1,0.66,i
CCC(Sc1nc(=O)cc(N)n1-c1ccccc1)C(=O)Nc1cc(C)on1 (stereo unspecified),0.6,-6,-1,1.7,-3.1,0.67,.
COc1cc(N=c2ssnc2Cl)c(OC)cc1Cl,0.8&1.3,-6&2,-11,6.8&2.1,5.4&1.4,0.68&0.67,i
COc1ccc(C(=O)N=c2sc3ccccc3n2C)cc1,-7.4,-1,-5,1.1,-2.5,0.71,i
N#C/C(=C\c1ccc(OC(=O)c2ccc(Cl)s2)cc1)c1nc2ccccc2[nH]1,-6.5,-27,-15,.,4.5,.,.
O=C(Nc1ccccc1)c1ccc2nc(-c3ccco3)c(-c3ccco3)nc2c1,-27,6,-1,-17,-1.9,0.65,.
CC1Sc2ccc(C(=O)Nc3cc(S(C)(=O)=O)ccc3Cl)cc2NC1=O (stereo unspecified),-0.3,6,10,0.7,-4.7,0.65,i
O=C(NC1CCCCCC1)c1ccc2nc3cc(Cl)ccc3c(=O)n2c1,0.1,-4,-11,-211,-0.8,0.7,i
Clc1cccc(-c2nc(NCC3CCCO3)c3ccccc3n2)c1 (stereo unspecified),0.2,-5,7,-2.9,0.0,0.65,i
COc1ccc(/C(O)=C2/C(=O)C(=O)N(CC3CCCO3)C2c2ccc(O)c(OC)c2)cc1 (stereo unspecified),0.8,1,20,11,-4.3,0.64,.
O=c1cc(-c2ccccc2)[nH]c2[nH]n(-c3ccccc3)c(=O)c12,1.9,-8,99*,9.0,2.5,0.62,.
CCCCn1c(SCC(=O)Nc2ccc(NC(C)=O)cc2)nc2ccccc2c1=O,-7.0,0,-3,.,-1.8,.,i

# Whole records from above:
# Shown for `CC1Sc2ccc(C(=O)Nc3cc(S(C)(=O)=O)ccc3Cl)cc2NC1=O` (stereo unspecified) → HNF4A DNA FP: -0.3; Beta2AR agonist: 6; ALR inh: 10; UCH37 DUB inh: 0.7; LANA-H2A inh: -4.7; Ecoli growth: 0.65; FGF22 binding: i
# Shown for `CCCCn1c(SCC(=O)Nc2ccc(NC(C)=O)cc2)nc2ccccc2c1=O` → HNF4A DNA FP: -7.0; Beta2AR agonist: 0; ALR inh: -3; UCH37 DUB inh: .; LANA-H2A inh: -1.8; Ecoli growth: .; FGF22 binding: i

# Remaining list, next part
SMILES,HNF4A DNA FP,Beta2AR agonist,ALR inh,UCH37 DUB inh,LANA-H2A inh,Ecoli growth,FGF22 binding
Cc1cc(F)ccc1S(=O)(=O)N1CCCOC1CNC(=O)C(=O)NCCCN1CCOCC1 (stereo unspecified),-6.0,2,-7,1.1,3.1,0.71,i
CN(C)C=NC(=O)c1[nH]c2ccc(Cl)cc2c1-c1ccccc1,2.5,49*,.,-64,-10,0.6,i
COc1ccc(S(=O)(=O)N2CCCCC2)cc1NC(=S)Nc1cccc(Cl)c1C,3.4,-4,-4,2.5,4.5,0.62,.
CCOC(=O)c1ccc(NC(=O)CCc2nnc3ccc(N4CCCC4)nn23)cc1,3.2,-9,-1,2.9,1.6,0.67,i
CC1CCCC(NC(=O)c2cc(-c3ccncc3)nc3ccccc23)C1C (stereo unspecified),0.9,3,.,1.6,.,0.68,i
CCCCCCCC(=O)Nc1cc(C(=O)NCc2ccc(C)cc2)ccc1N1CCC2(CC1)CC(c1ccccc1)=NO2,2.4,-13,-6,-1.4,2.2,0.73,i
COc1cc2[nH]c(=S)nc(Nc3ccc(NC(C)=O)cc3)c2cc1OC,-2.3,3,-12,10,7.7,0.71,i
Cc1ccc(-c2noc(CCC(=O)Nc3ccccc3C)n2)cc1,-2.4,-12,-19,5.4,-0.2,0.69,.
O=C(Nc1ccc2c(c1)OCCO2)c1cncc(Br)c1,3.1,2,3,0.1,-2.4,0.68,.
CCOCCCNC(=O)c1c[nH]c2ccc(C)cc2c1=O,1.4,-7,0,7.8,4.2,0.72,.
CCc1nc2ccccc2c(=O)n1NC(=O)c1c(O)c2cccc3c2n(c1=O)CCC3,0.5,6,-1,-1.2,4.4,0.78,.
COc1ccc(NC(=O)c2cc(CC(C)C)on2)cc1OC,-0.1,0,-3,6.2,1.1,0.78,i
COc1cccc(Oc2nccc(N(C)C)c2C#N)c1,-2.3,0,1,3.8,-1.2,0.71,i
COc1ccc(/C=C(/NC(=O)c2ccco2)C(=O)Nc2cccc(C(=O)O)c2)cc1,0.1,-9,-1,6.3,-11,0.7,i
CCCCN(C)C(=O)c1nc2ccccn2c1CN1CCN(C(=O)c2cccs2)CC1,2.7,-7,-4,4.3,-0.9,0.64,i
Cc1ccc2c(c1C)NC(C)CC2C (stereo unspecified),1.8,-4,1,-2.5,3.3,0.69,.
C/C(=N\NC(=O)c1nn(C)cc1Br)c1ccc(NC(=O)c2ccncc2)cc1,-0.9,-8,-11,.,-2.6,.,i
O=C(NCC(c1ccc(F)cc1)N1CCOCC1)c1ccc(Br)o1 (stereo unspecified),-1.5,7,-1,1.8,2.1,0.62,.
Cc1ccnc2nc(C(=O)Nc3nccs3)nn12,-1.7,-15,-1,.,3.3,.,.
CCCC(=O)c1c[nH]c(C(=O)NCc2cccnc2)c1,7.7,-1,10,0.6,2.4,0.59,i
COc1ccc(CNC(=O)CN(C(=O)c2csnn2)c2ccccc2F)cc1,-2.8,7,-26,0.1,3.7,0.64,i
CCOC(=O)c1cccc(NC(=O)c2cnc3ccccc3n2)c1,-0.3,11,.,5.3,-1.2,0.73,.
CCCn1nc2cc(C(=O)NCC34CC5CC(CC(C5)C3)C4)ccc2c1OCC,2.4,7,0,-18,1.8,0.65,i
C/C=C/CSc1nc2c(c(=O)[nH]c(=O)n2C)n1C(C)C,-3.5,0,-23,2.8,0.5,0.67,.
O=C(CSc1nnc(NC(=O)C2CCC2)s1)NC1CC1,4.6,-4,2,6.1,-5.0,0.71,.
O=C(CSc1nnc(NC(=O)C2CC(=O)N(c3ccccc3)C2)s1)NCC1CCCO1 (stereo unspecified),0.6,-6,-4,1.2,5.5,0.73,i
COc1ccc(C(=O)COC(=O)CCN2C(=O)C3CC=CCC3C2=O)c(OC)c1 (stereo unspecified),-1.5,4,.,-0.1,.,0.68,i
N#Cc1cc(C(=O)c2cc(Cl)ccc2O)cn(CC2CCCO2)c1=O (stereo unspecified),0.7,0,3,4.0,7.3,0.68,.
Cc1ccccc1C(=O)N1CCC(C(=O)Nc2ccc(S(=O)(=O)N3CCCC3)cc2)CC1,-1.3,1,5,0.1,3.2,0.72,.
Cc1ccccc1OCC(=O)NNC(=O)c1ccc(-c2ccccc2)cc1,0.7,6,2,1.7,10,0.67,i
CCCCn1cnc2cc(C)c(C)cc21,-6.0,4,-6,3.8,-5.0,0.66,i
